NPYLR7 ag = activates Aedes aegypti NPYLR7 receptor; HEK293T NPYLR7/Galpha15, GCaMP6s calcium fluorescence; activation, % at 10 µM; 270,000 compounds, 0.15% hits; in the data active = activation above about 40%;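 also: 0% = vehicle and 100% = reference agonist at the receptor; some compounds past the cut are filed as inactive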
NPYLR7 ag max-min = second read-out of NPYLR7 ag, no call of its own (marks repeat the call); activation, %; measured here: Max-Min RFU normalised activation; some inactives read as strong as hits;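 span of the calcium signal over five minutes; 0% = vehicle and 100% = native peptide agonist; compound fluorescence can raise it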
Active calls of the source: *; & = joins results of further samples.

SMILES | NPYLR7 ag | NPYLR7 ag max-min
CCCCCn1c(N2CCN(Cc3ccc(C)cc3)CC2)nc2c1c(=O)[nH]c(=O)n2C | 0 | 51
CC1(C(=O)Nc2ccc(Cl)c(Cl)c2)CCN1C(=O)Cc1ccc(-c2ccccc2)cc1 (centres undefined) | -3 | -5
CCOC(=O)c1c(-c2ccccc2)csc1NC(=O)c1c(F)cccc1F | -4 | -8
CCCCCC(=O)N1C[C@H](C(=O)NC)[C@H]2c3ccccc3NC(=O)[C@]21C | 1 | 14
CCOCCNC(=O)c1ccc(-n2nc(C(=O)OCC)cc2-c2ccc(OC)cc2)cc1 | 2 | -2
COC(=O)CC(NC(=O)NC1CCN(c2ccccn2)CC1)c1ccccc1 (centres undefined) | 4 | 5
COC(=O)c1ccc(COc2coc(CN3CCc4ccccc4C3)cc2=O)cc1 | -1 | 25
C=C(C)CNC(=S)NNc1ncnc2sccc12 | -4 | -5
CCn1cc(C#N)c(=O)n(Cc2cnc(-c3ccc(C(C)C)cc3)s2)c1=O | -6 | -5
CCOC(=O)C1CCCN(C(=O)c2cc(-c3ccccc3)n(-c3ccc4c(c3)OCO4)c2C)C1 (centres undefined) | 16 | 17
Cn1c(SCC(=O)c2ccccc2F)nnc1-c1ccc(F)cc1 | -16 | -15
Cc1cc(O)c(C(C)C)cc1Cl | 1 | 0
Cc1c(N2CCCC2)ccc2c1NC(=O)CC2c1cc(C#CCO)cs1 (centres undefined) | 5 | -6
COCc1c(Br)c(C)nc(OCC(=O)N/N=C\c2cc(I)c(OCc3cccc4ccccc34)c(OC)c2)c1C#N | 16 | 11
Cc1cc(C)c2nc(NC(=O)CN3CCSC3=O)sc2c1 | -5 | -6
CCCCCC(=O)N1CCN(C(=O)CCCSc2nnc(-c3ccc(C)cc3)n2-c2cccc(Cl)c2)CC1C (centres undefined) | 0 | 0
O=S1(=O)N=C(C2CCNCC2)Nc2ccccc21 | 11 | 8
Cn1cnnc1SCC(=O)Nc1ccc(Cl)cc1F | -5 | -10
Cc1ccc(NC(=O)C2CC(=O)N(C)C(=Nc3cccc(F)c3)S2)cc1Cl (centres undefined) | -1 | -4
Cc1cc(CS(=O)(=O)NC(C)c2ccc(OC(F)F)cc2)on1 (centres undefined) | 6 | 5
O=C1CN(C(=O)CCn2cnc3ccc(Br)cc3c2=O)CCN1 | -1 | -2
Cc1cccc(C)c1N1CCN(C(=O)CN2CC3=C(C2=O)C(c2ccc(F)cc2)NC(=O)N3C)CC1 (centres undefined) | 1 | 11
CCc1cccc(CC)c1NC(=O)c1c(C)noc1CC | 8&4 | 7&2
C=CCOC(CN1CCN(C(=O)c2oc3ccccc3c2C)CC1)c1cccc(N2CCCC2)c1 (centres undefined) | 7 | 1
CCOC(=O)c1cnc(-c2cccc(C(F)(F)F)c2)nc1N(C)Cc1cc(OC)c(OC)c(OC)c1 | 3 | -3
CC1(C(=O)NS(C)(=O)=O)CCN1C(=O)C/C=C/c1ccccc1 (centres undefined) | 2 | 1
CN1CC2(CCCN(Cc3ccc(S(C)(=O)=O)cc3)CC2)OC1=O (centres undefined) | 6 | -2
O=C(Nc1ccc(N2CCN(C(=O)c3ccc(OC(F)F)cc3)CC2)nc1)c1ccccc1F | -1 | 11
CC(=O)Nc1ccc(S(=O)(=O)Nc2nc(C)cc(-n3nc(C)cc3C)n2)cc1 | 0 | -1
O=c1cc(O)c2sc3nc(C(F)(F)F)cc(C4CC4)c3c2[nH]1 | 0 | -5
c1ccc(Cn2cc(CNC3CSCCSC3)cn2)cc1 | 18 | -1
CCOC(=O)c1c(C#N)c(N)n(NC(=O)OC(C)(C)C)c1C | -4 | -3
Cc1ccc(OCc2cc(C)on2)c([N+](=O)[O-])n1 | -1 | -3
CC(C)NC(=O)c1nnc2n1CCN(Cc1ccc(OC(F)(F)F)cc1)C2 | 8 | 2
COc1ccc(S(=O)(=O)c2c(C)cc(C)n(CC(=O)NCc3ccccc3)c2=O)cc1 | -1 | -11
O=C(NCCCN1CCCCCC1)c1cnn(-c2ccccc2)n1 | -3 | -3
Cc1c(-c2ccccc2)sc(NC(=O)CSc2nccn2C(C)C)c1C(=O)N1CCOCC1 | -15 | -13
COc1ccc2[nH]c(-c3ccccc3)nc(=S)c2c1 | 11 | 9
N#CCSc1nnc2ccccn12 | 20 | 11
Cc1nn(-c2ccccc2)c2[nH]c(=O)c(C#N)c(-c3cccs3)c12 | 2 | 6
O=S(=O)(c1cccs1)N1CCN(c2ccc(Cl)cc2)CC1 | -2 | -3
Clc1ccccc1-c1cc(C2(CNCCOc3ccccc3)CC2)ccn1 | -12 | -9
Cc1sc(NC(=O)Cn2nc([N+](=O)[O-])cc2C)c(C(N)=O)c1C | 2 | -5
O=C(CSc1nc2[nH]ncc2c(=O)[nH]1)Nc1ccc(Br)cc1 | -13 | -4
O=C(NC(c1ccc(F)cc1)c1cccs1)C1CCN(S(=O)(=O)c2ccccc2F)CC1 (centres undefined) | 2 | -1
CC(C)(C)C(=O)Nc1c(-c2ccc(C(F)(F)F)cc2)nc2ccccn12 | -6 | -5
CC(C)(C)c1ccc(-c2ccnc3nc(N4CCN(C(=O)c5ccc(F)cc5)CC4)nn23)cc1 | 7 | 7
COCc1nc2c(c(=O)[nH]1)C1(CCCC1)Cc1ccccc1-2 | 1 | 1
Cc1ccc(S(=O)(=O)N2CCCN(C(C)c3nc4ccccc4c(=O)[nH]3)CC2)cc1 (centres undefined) | 1 | -1
CC(=O)N(C)C1CCN(Cc2cccc(C(=O)Nc3cccc(F)c3)c2)C1 (centres undefined) | 4 | 1
CN(C)c1cc(C(F)(F)F)nc(SCc2ccc(C(=O)NC3CC3)cc2)n1 | 32 | 36
c1cc(-c2ccn[nH]2)cc(-n2cnnc2)c1 | 12 | -2
CC(C)S(=O)(=O)NC(=O)C1(C)CCN1C(=O)Cc1cc(F)ccc1F (centres undefined) | 2 | 2
CN(Cc1cccnc1)C[C@H]1CC[C@@H](Cc2ccc3c(c2)OCO3)O1 | 13 | 7
O=C(CSc1nnc(SCC(=O)NC2CCCCCC2)s1)NC1CCCCCC1 | 3 | 2
OCC1(CCc2ccccc2)CCN(Cc2ccncc2)CC1 | 4 | 1
CCOC(=O)C1CCN(C(c2ccc(F)cc2)c2c(O)cc(C)n(CC)c2=O)CC1 (centres undefined) | 11 | 5
Cc1ccccc1C(=O)N1CCC(C(=O)NCc2cnn3ccccc23)CC1 | 6 | 6
OCc1ccc(CN2CCCC(Nc3ccccc3)C2)o1 (centres undefined) | -1 | -2
CCc1c(C#N)c(SCCC(=O)Nc2ccc(F)cc2)nc2c1C(=O)CC(C)(C)C2 | 12 | 10

Structures above containing a cyano group:
SMILES | NPYLR7 ag | NPYLR7 ag max-min
CCn1cc(C#N)c(=O)n(Cc2cnc(-c3ccc(C(C)C)cc3)s2)c1=O | -6 | -5
COCc1c(Br)c(C)nc(OCC(=O)N/N=C\c2cc(I)c(OCc3cccc4ccccc34)c(OC)c2)c1C#N | 16 | 11
CCOC(=O)c1c(C#N)c(N)n(NC(=O)OC(C)(C)C)c1C | -4 | -3
N#CCSc1nnc2ccccn12 | 20 | 11
Cc1nn(-c2ccccc2)c2[nH]c(=O)c(C#N)c(-c3cccs3)c12 | 2 | 6
CCc1c(C#N)c(SCCC(=O)Nc2ccc(F)cc2)nc2c1C(=O)CC(C)(C)C2 | 12 | 10

Next part:
SMILES | NPYLR7 ag | NPYLR7 ag max-min
O=C(C1=COCCO1)N1CCN(c2nc3c(F)cccc3s2)CC1 | -2 | 0
Cc1cc(N2CCN(c3ccc([N+](=O)[O-])cc3)CC2)nc(-n2nc(C)cc2C)n1 | 4 | 4
COC1CCN(CC(=O)c2cc(C)n(NC(=O)c3ccccc3)c2C)CC1 | -1 | 0
Cc1cc(C)cc(Oc2cc(C(C)C)nc(SCc3ccc(F)cc3F)n2)c1 | -7 | 3
COc1ccc(CNC(=O)CCC2CCCN(Cc3cc(C)c(C)o3)C2)c(OC)c1 (centres undefined) | 13 | 13
O=C(c1cc2ccccc2[nH]1)N1CCC(CO)(CCCc2ccccc2)CC1 | 9 | 9
CCOc1ccc(-c2cc(C(=O)O)c3[nH]c(C)nc3n2)cc1OC | -1 | -1
Cc1ccc(CNC(=O)c2cc(S(N)(=O)=O)c(C)o2)s1 | 8 | 6
CC(=O)N(CC1=CCCN(C(C)C(N)=O)C1)C1CCCCC1 (centres undefined) | 10 | -1
O=C(NNC(=O)c1ccccn1)c1ccc(C2SCCCS2)cc1 | 0 | -1
CCCc1nc(N2CCN(C(=O)CCC(=O)OCC)CC2)c2c(-c3ccc4ccccc4c3)noc2n1 | 15 | 5
COCCn1c(N2CCN(CCO)CC2)nc2c1c(=O)[nH]c(=O)n2C | 11 | 6
[O-][n+]1onc2cc(Cl)ccc21 | 2 | -1
CCOC(=O)C1CCN(Cc2nc3scc(-c4ccccc4F)c3c(=O)[nH]2)CC1 | 0 | 9
Nc1nonc1-c1noc(NCC2CCCO2)n1 (centres undefined) | 3 | 50

Single values from the results shown.
O=C(NNC(=O)c1ccccn1)c1ccc(C2SCCCS2)cc1 in NPYLR7 ag max-min → -1
Cc1ccc(CNC(=O)c2cc(S(N)(=O)=O)c(C)o2)s1 in NPYLR7 ag → 8
COc1ccc(CNC(=O)CCC2CCCN(Cc3cc(C)c(C)o3)C2)c(OC)c1 (centres undefined) in NPYLR7 ag max-min → 13
O=C(C1=COCCO1)N1CCN(c2nc3c(F)cccc3s2)CC1 in NPYLR7 ag max-min → 0
COC1CCN(CC(=O)c2cc(C)n(NC(=O)c3ccccc3)c2C)CC1 in NPYLR7 ag max-min → 0
CC(=O)N(CC1=CCCN(C(C)C(N)=O)C1)C1CCCCC1 (centres undefined) in NPYLR7 ag max-min → -1
Nc1nonc1-c1noc(NCC2CCCO2)n1 (centres undefined) in NPYLR7 ag → 3

Continuation:
SMILES | NPYLR7 ag | NPYLR7 ag max-min
CC(C)Oc1ccccc1/C=N\n1nnnc1N | -3 | -4
CN(C)C(CNCc1ncc[nH]1)c1ccc(Cl)cc1 (centres undefined) | -1 | -1
COCCn1c(=O)c2c(nc3n2CCCN3c2cccc(OC)c2)n(C)c1=O | -9 | -9
Cc1ccc2c(c1)c(C1CCN(C(=O)c3cc(C(C)(C)C)nn3Cc3ccccc3)CC1)cn2C | -3 | 9
CCOC(=O)C1(CCOc2ccccc2)CCN(CC2=Cc3cccc(OC)c3OC2)CC1 | 8 | 5
CC(c1ccccc1)N1C(=O)NC(NC(=O)c2ccncc2)(C(F)(F)F)C1=O (centres undefined) | 20 | 11
CCc1nnc(CNC(=O)c2cc(C(C)C)nn2C)s1 | 4 | 1
COC(=O)C1=C(C)NC(=O)NC1c1cc(Cl)c(O)c(OC)c1 (centres undefined) | 5 | 5
C#CCN(Cc1ccco1)C(=O)c1ccccc1N1CCOCC1 | -3 | -1
COCc1cc(C)nc(OCC(=O)N/N=C\c2cccc(OCc3ccc(Cl)cc3Cl)c2)c1C#N | 3 | 17
COc1ccc(-n2ncc(C(C)NS(=O)(=O)c3c(C)nn(C)c3C)c2C)cc1 (centres undefined) | 2 | 4
CCN(Cc1ccccc1)C(=O)c1c2c(nc3ccccc13)CCC2 | 0 | -1
COc1ccc2oc(CNC(=O)c3cnn4c3CCCC4)nc2c1 | 9 | 8
COc1ccc(C(N)=O)c(OC(C)C(=O)NCCC2=CCCCC2)c1 (centres undefined) | -4 | -3
CCc1nc2c(OCc3ccc(S(C)(=O)=O)cc3)cccn2c1N(C)C(=O)C1CC1 | 2 | -1

One compound at a time (already shown). Order of screens: NPYLR7 ag | NPYLR7 ag max-min
CCOC(=O)C1CCCN(C(=O)c2cc(-c3ccccc3)n(-c3ccc4c(c3)OCO4)c2C)C1 (centres undefined) as listed: 16 | 17
Cc1sc(NC(=O)Cn2nc([N+](=O)[O-])cc2C)c(C(N)=O)c1C as listed: 2 | -5

Next section
SMILES | NPYLR7 ag | NPYLR7 ag max-min
Cn1cc(C(=O)NCCC2=CCCCC2)c2[nH]c(=O)n(-c3ccc(Cl)cc3)c(=O)c21 | 5 | 4
O=C(Nc1ccc(OC(F)(F)F)cc1)Nc1cccc2[nH]c([C@H]3C[C@H](O)[C@@H](CO)O3)nc12 | 13 | 16
CN1CCN(c2onc(-c3ccc(F)cc3)c2CN(Cc2ccccc2)C(=O)c2cccs2)CC1 | 10 | 14
OCCC#Cc1ccc(CN2CCCC(Nc3ccccc3)C2)cc1 (centres undefined) | 4&-4 | 0&-5
Cc1cc(C)cc(C(=O)NCCc2cc3ccc(C)c(C)c3[nH]c2=O)c1 | 9 | 5
COC(=O)c1ccc(CN2CCc3c(cnn3-c3ccc(C#N)cc3)C2)o1 | 0 | 9
Cc1ccc(S(=O)(=O)N(C)C)cc1NC(=O)c1ccco1 | 3 | 1
CCOC(=O)c1ccc2c(c1)nc(SCc1ccccc1C#N)n2CCc1ccc(OC)cc1 | -5 | -9
Cc1c2ccsc2cc[n+]1C | 3 | 3
CC(=O)Oc1cccc2c1C(=O)c1c(OC(C)=O)cc(C(=O)O)cc1C2=O | -3 | -5
CCCCN(CC(=O)N(CCc1c[nH]c2ccccc12)Cc1ccccc1)C(=O)c1cc(Cl)cc(Cl)c1 | 15 | 7
COc1ccccc1C1=NOC(CN(Cc2ccccc2Cl)C(=O)c2cccc(F)c2)C1 (centres undefined) | 20 | 28
Cc1cc(C)n(-c2cc(NCCNC(=O)COc3ccccc3)nc(C)n2)n1 | -11 | -11
Cn1c(C2c3[nH]c4ccccc4c3CCN2Cc2cccs2)nc2ccccc21 (centres undefined) | 27 | 11
Cc1ccc2oc3c(c(=O)c2c1)C(c1ccccn1)N(c1cc(C)on1)C3=O (centres undefined) | -1 | -1
CC1CCC2(CC1)OCC(C(=O)NC(C)c1ccccc1)N2C(=O)c1ccc(F)cc1 (centres undefined) | -1 | 17
O=C(Nc1cccc(C(F)(F)F)c1)c1n[nH]c(=O)c2ccccc12 | 4 | 0
CC(C)N(CC(=O)N(Cc1ccccc1)Cc1cccn1Cc1ccc(F)cc1)C(=O)NCc1ccccc1 | 2 | 5
COc1cc([N+](=O)[O-])ccc1NC(=O)CN1C(=O)c2ccccc2C1=O | -10 | -14
Cc1cc2nc(N(CCN(C)C)C(=O)CCS(=O)(=O)c3ccc(F)cc3)sc2cc1C | 3 | 0
Fc1cnc(N2CC(c3ccncc3)C2)nc1N1CCOCC1 | -1 | -1
CCn1ncnc1-c1c(-c2ccccc2)ncn1C[C@H]1CCCN1 | -2 | -4

Assay outcomes deposited in PubChem by Fisher Drug Discovery Resource Center.

Not all compounds are listed; rates above refer to the full screens.
